# A647 autofl = compound fluoresces in the A647 spectral region. Compound fluorescence, A647 channel (570/671 nm), Tris buffer. max dye-equivalent concentration, M. 59,000 tested, under 10 active. AID 592; active means above 1 µM dye equivalent; inconclusive means 0.1 to 1 µM; inactive means 0.1 µM or less;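 further: values scaled relative to a standard on each plate; highest value over a series up to 38 µM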
#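 Fluorescence read (570 nm ex, 671 nm em) after 15 min RT incubation of compounds in 100 mM Tris buffer, pH 8.0; values expressed as dye-equivalent concentration against a six-point A647 standard series on each plate.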
# A488 fluor = compound autofluorescence in A488 spectral region. compound autofluorescence, A488 spectral region, dye equivalency; hits give high values. max dye equivalency, M. hit rate 0.1% among 59,000. AID 591; active = above 10 nM dye equivalent; inconclusive = 1 to 10 nM; inactive = 1 nM or less; about half of its hits are not listed in these tables;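 further: highest value over a series up to 38 µM; compound alone in buffer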
#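 Compound autofluorescence was read in 100 mM Tris pH 8.0 after 15 min at room temperature, ex 480 nm/em 540 nm. Intensities were converted to A488 dye-equivalent concentration using an on-plate six-point A488 standard curve.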
# Resorufin fluor = compounds fluorescent in resorufin spectral region; hit rate 0.04% among 59,000; AID 588; Compound fluorescence, resorufin region 547/598 nm, buffer; hits give high values; max dye-equivalent concentration, M; active = above 10 nM dye equivalent; inconclusive = 1 to 10 nM; inactive = 1 nM or less; a few of its hits are not listed in these tables; further: highest value over a series up to 38 µM
#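 Dye-equivalent concentration values derive from comparing each well's 547/598 nm fluorescence against resorufin standards included on every plate. Incubation was 15 min at room temperature in 100 mM Tris, pH 8.0.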
# TSHR agonist = agonists of human thyroid stimulating hormone receptor; hit rate 0.48% among 73,000; HEK293-CNG-TSHR cells (CNG channel as cAMP sensor), membrane potential dye, cAMP; AID 926; Potency, µM (series often up to 57.1 µM), for inactives: at the top dose activation, usual class: activators; active = well fitted activation curve of enough size with the parental cells flat; inconclusive = any curve in the parental cells; inactive = parental cells flat and receptor cells flat or falling; further: potency means the concentration at half of the fitted maximal effect; % of control where 0% means no effect; weak receptor curves with flat parental cells got no call and are not listed
# Target sequence (P16473 whole entry, looked up): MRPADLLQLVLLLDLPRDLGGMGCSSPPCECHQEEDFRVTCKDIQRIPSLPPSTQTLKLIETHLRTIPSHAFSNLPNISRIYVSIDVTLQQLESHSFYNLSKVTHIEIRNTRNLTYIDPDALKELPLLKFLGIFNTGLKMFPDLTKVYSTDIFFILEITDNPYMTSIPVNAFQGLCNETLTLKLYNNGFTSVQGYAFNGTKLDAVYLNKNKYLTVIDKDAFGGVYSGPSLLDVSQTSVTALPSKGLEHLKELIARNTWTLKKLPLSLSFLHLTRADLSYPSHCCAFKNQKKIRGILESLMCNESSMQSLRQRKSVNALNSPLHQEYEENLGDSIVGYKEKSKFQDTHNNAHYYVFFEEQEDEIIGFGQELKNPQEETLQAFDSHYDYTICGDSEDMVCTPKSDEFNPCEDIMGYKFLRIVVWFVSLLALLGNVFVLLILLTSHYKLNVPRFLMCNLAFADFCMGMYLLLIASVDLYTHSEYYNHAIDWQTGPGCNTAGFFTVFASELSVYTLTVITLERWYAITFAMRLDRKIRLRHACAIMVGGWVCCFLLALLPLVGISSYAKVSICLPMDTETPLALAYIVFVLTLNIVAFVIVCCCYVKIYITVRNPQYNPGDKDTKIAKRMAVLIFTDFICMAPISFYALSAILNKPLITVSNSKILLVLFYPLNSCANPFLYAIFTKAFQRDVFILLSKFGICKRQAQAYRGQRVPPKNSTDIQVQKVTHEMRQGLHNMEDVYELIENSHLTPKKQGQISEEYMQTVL
#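 HEK 293 cells stably expressing TSHR and a modified CNG channel, with CNG-only parental cells as counterscreen, were preloaded 60 min at room temperature with membrane potential dye containing 100 uM RO 20-1724. Compound exposure was 30 min, and depolarization was read as fluorescence at 590 nm.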
# AID923 = qHTS Assay for Allosteric/Competitive Inhibitors of Caspase-1: Spectroscopic Profiling in AFC Spectral Region; compound fluorescence, AFC spectral region (405/520 nm); almost no hit is shown here; Potency, µM (top dose mostly 57.5 µM), without a hit: at the highest dose fluorescence increase, usual class: activators; hit rate 1.1% among 75,000; AID 923, 2007; active means well fitted activation curve with a large enough effect; inconclusive means small, poorly fitted or top-dose-only effect;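 further: potency means the concentration at half of the fitted maximal effect; 0% is about no effect; scaled to a free AFC standard on each plate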
#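 Baseline compound fluorescence (AFC region, 405 nm ex/520 nm em) taken from the intercept of kinetic reads with 50 nM caspase-1 and 5 uM Ac-WEHD-AFC; normalized to an on-plate AFC standard curve; compounds titrated up to 57 uM.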
# Numbers without * were called inactive; i = inactive; ? = inconclusive; nt = not tested or not shown; & = joins results of further samples; [ ] = dose if it differs, or a comment. A portion of the library (hit frequency here may not be typical).
SMILES,A647 autofl,A488 fluor,Resorufin fluor,TSHR agonist,AID923
O=C1CCCN1CCCNc1ccc(S(=O)(=O)N2CCCCC2)cn1,1e-09,i,i,0%[11.4 µM],-0.5%
COc1ncc2nc(-c3ccc(F)cc3)c(=O)n(CCc3ccccc3)c2n1,1.4e-09,i,i,5%,2.7%
CC(C)(C)NC(=O)C(Cc1ccccc1)NS(=O)(=O)c1cccc2nsnc12 (centres undefined),1.8e-08,i,i,7%,-0.1%
CCn1cc(SCC(N)=O)c2ccccc21,nt,nt,nt,-9%,-5.5%
O=C(NCCc1ccccc1)C1CCCN(S(=O)(=O)c2cnc[nH]2)C1 (centres undefined),nt,nt,nt,-4%,1.2%
O=C(NCCc1c[nH]c2ccccc12)c1ccc(S(=O)(=O)NCc2ccco2)cc1,5.3e-09,i,i,-12%,-0.6%
c1ccc(-c2nc3ccccc3o2)nc1,1.3e-08,i,i,8%,0.8%
COc1ccc(-c2nnc(SCC(=O)N3CCCc4ccccc43)o2)cc1OC,2.1e-08,i,i,nt,-0.1%
CC1=C(NCCc2ccccc2)CCC1=O,nt,nt,nt,0%,1.6%
CCn1c(=O)c(C(=O)CN2CC(C)OC(C)C2)c(N)n(Cc2ccccc2)c1=O (centres undefined),2.5e-08,i,i,9%,-0.9%
CN(c1ccccc1)C(c1ccc(F)cc1)c1nnnn1CC1CCCO1 (centres undefined),1.9e-09,i,i,?,-1.8%
CN1[C@@H](c2ccccc2)CC(=NO)C[C@H]1c1ccccc1,2.9e-09,i,i,1%[11.4 µM],0.0%[11.5 µM]
O=C(O)CSc1nnc(-c2ccccc2)o1,1e-09,i,i,1%,1.5%
CN1CC2CCCC3(C1)C(=O)NC1(CCCCC1)N=C23 (centres undefined),3.1e-08,i,i,2%,1.5%
O=C1[C@H]2[C@H]3[C@H](O)[C@H](O)C/C(=N/OC[C@@H](O)COCc4ccco4)[C@@H]3CC[C@@H]2C(=O)N1C[C@@H]1CCCO1,nt,nt,nt,2%[11.4 µM],-0.1%[11.5 µM]
COc1ccc(NC(=O)C2CCCNC2)cc1OCC(C)C (centres undefined),nt,nt,nt,6%,-0.3%
Cn1c(SCC(=O)NCc2cccs2)nnc1-c1ccncc1,6.3e-09,i,i,-2%,-0.3%
COc1ccccc1Nc1ccc(C(=O)NC2CCCCC2)cn1,2.6e-09,i,i,?,1.4%
CN(C)c1nc(N)nc(CSc2nc3cc(Cl)ccc3o2)n1,8.3e-09,i,i,17%,0.5%
CC1(C)Cc2ccccc2-c2nnc(-c3ccccn3)n21,7.4e-09,i,i,5%,0.7%
O=C(OCc1ccc(F)cc1Cl)c1ccccn1,3.2e-08,i,i,-3%,3.0%
Cc1ccc(-n2c(=O)cc(N3CCCCCC3)[nH]c2=O)cc1,nt,nt,nt,-5%,-3.1%
Cc1ccc(F)cc1NC(=O)c1c(-c2ccccc2)noc1C,nt,nt,nt,?,2.2%
CC(C)OP(C)(=O)CN1CCN(CP(C)(=O)OC(C)C)CC1 (centres undefined),nt,nt,nt,6%,7.1%
CC(O)Cn1ccccc1=N (centres undefined),1e-09,i,i,nt,nt
COc1ccc(-n2nnc3c(SCC(=O)NCC4CCCO4)ncnc32)cc1 (centres undefined),nt,nt,nt,?,1.4%
CC1=Nn2c(nnc2-c2ccccc2F)SC1,1e-09,i,i,-2%,1.2%
Cc1nc(=O)c(-c2ccccc2)c(C)n1-c1ccccc1O,1e-09,i,i,14%,-0.7%
Cc1ccc(-n2c(=O)[nH]cc(C(=O)N3CCc4ccccc43)c2=O)cc1,1e-09,i,i,-1%,0.3%
Nc1nc2n(n1)C(c1ccco1)CC(c1ccc(Cl)cc1Cl)N2 (centres undefined),1e-09,i,i,-4%,-1.9%
CCCCCCc1nc2ccccc2c(=O)n1N,1e-09,i,i,?,0.1%
C=C(C)c1cccc(C(C)(C)NC(=O)Nc2ccc3[nH]c(=O)[nH]c3c2)c1,3.2e-08,i,i,nt,-0.9%
CCCS(=O)(=O)N1CCN(S(=O)(=O)c2ccc(F)cc2)CC1,1e-09,i,i,-4%,-0.2%
O=C1CC(N2CCN(c3cccc(C(F)(F)F)c3)CC2)C(=O)N1c1ccccc1F (centres undefined),nt,nt,nt,?,-2.4%
CNc1oc(Cc2ccccc2)nc1S(=O)(=O)c1ccccc1,3.6e-09,i,i,24%,-3.0%
COC(=O)C1=C(N)Oc2cc(C)oc(=O)c2C1c1cccnc1 (centres undefined),1e-09,i,i,13%,-0.8%
COCC(=O)Nc1ccccc1C(=O)NC(C)C,8.5e-09,i,i,3%,1.1%
CC(C)CNC(=O)O,1.9e-08,i,i,2%[11.4 µM],-6.2%[11.5 µM]
c1ccc2oc(NC3=NCN(CC4CCCO4)CN3)nc2c1 (centres undefined),2.3e-09,i,i,4%,1.6%
CCOC(=O)c1cc(-c2ccc(F)cc2)n(CC(=O)N2CCCC2)c1C,9.5e-09,i,i,?,-1.7%
CCC(C(=O)OC)n1cnc2c(nnn2-c2ccc(OC)cc2)c1=O (centres undefined),8.2e-09,i,i,-1%,1.8%
CCn1c(SCC(=O)Nc2cc(OC)c(OC)c(OC)c2)nnc1-c1cccs1,3.5e-09,i,i,4%,-0.5%
O=C(NCc1cccs1)c1ccc2c(c1)OCCO2,1.7e-09,i,i,-1%,-0.1%
COCCNC(=O)CN(Cc1ccc2c(c1)OCO2)C(=O)CCC(=O)Nc1nccs1,3.1e-09,i,i,-1%,-0.2%
N#Cc1cnn(-c2nc(SCc3ccccc3)nc3sc4c(c23)CCCC4)c1N,nt,nt,nt,14%,1.9%
COC(=O)C1CCN(c2nc3ccccc3nc2C(C#N)C(=O)OCC(C)C)CC1 (centres undefined),6.4e-09,i,i,?,7.4%
Nc1ccc2cn[nH]c2c1,2.7e-09,i,i,nt,nt
CCOc1ccc(-n2c(SCC(=O)NCc3ccco3)nc3c(c2=O)SCC3)cc1,1e-09,i,i,10%[11.4 µM],-2.0%
CCC(NC(=O)NC1=NCCS1)(C(F)(F)F)C(F)(F)F,1.3e-09,i,i,nt,nt
Cc1sc2ncnc(SCc3ccco3)c2c1C,1.6e-08,i,i,?,1.1%
C1=Nc2c(NCc3ccccc3)ncnc2Oc2ccccc21,4.1e-08,i,i,30%,1.0%
O=C(c1ccco1)N1CCN(S(=O)(=O)c2ccc(F)cc2)CC1,4.9e-09,i,i,1%,1.9%
C=CCc1cccc(/C=N/c2ncccc2O)c1O,nt,nt,nt,0%,10.0%
C=CCOc1cccc(C2/C(=C(/O)c3ccccc3)C(=O)C(=O)N2CCN2CCOCC2)c1 (centres undefined),5.5e-09,i,i,-1%,0.7%
CCSc1nnc(-c2ccc(S(=O)(=O)N3CCOCC3)cc2)n1CC1CCCO1 (centres undefined),1e-09,i,i,-1%,1.1%
COC(=O)C1C(=O)c2c([nH]c(C(=O)OCCSC)c2C)CC1C (centres undefined),nt,nt,nt,13%,2.3%
CCOC(=O)Nc1ccc(NC(=O)c2c(OC)cccc2OC)cc1,3e-08,i,i,?,-1.2%
COc1nc(-c2ccccc2)ccc1-c1noc(-c2ccccc2F)n1,4.9e-09,i,i,19%,-0.2%
COc1ccc([C@@H]2CC(=O)c3c(O)cc(O[C@@H]4O[C@@H](CO[C@@H]5O[C@@H](C)[C@@H](O)[C@@H](O)[C@H]5O)[C@@H](O)[C@@H](O)[C@H]4O)cc3O2)cc1O,1.9e-08,i,i,-1%,nt
C=C1CC[C@@H]2O[C@]2(C)CC[C@@H]2[C@H]1CC2(C)C,2.6e-09,i,i,7%,nt

# Profiles, quoted from the list. Screens in order: A647 autofl, A488 fluor, Resorufin fluor, TSHR agonist, AID923
# `Nc1ccc2cn[nH]c2c1` across the screens: 2.7e-09, i, i, nt, nt
# `C=CCc1cccc(/C=N/c2ncccc2O)c1O` across the screens: nt, nt, nt, 0%, 10.0%
# `C1=Nc2c(NCc3ccccc3)ncnc2Oc2ccccc21` across the screens: 4.1e-08, i, i, 30%, 1.0%

# Further records.
SMILES,A647 autofl,A488 fluor,Resorufin fluor,TSHR agonist,AID923
COc1ccc2c(c1)c(CC(=O)N1CCOCC1)c(C)n2C(=O)c1ccc(Cl)cc1,1e-09,i,i,?,-5.5%
Cc1cc(C)nc(SCC(=O)NCc2ccco2)n1,nt,nt,nt,?,2.6%
Cc1nn(Cc2ccccc2Cl)c(C)c1C(=O)N1CCN(c2ccccc2)CC1,1e-09,i,i,1%,-2.1%
O=C(Nc1cccc(C(=O)N2CCCCCC2)c1)c1ccco1,1.2e-08,i,i,-9%,-2.3%
COc1cc2ccccc2cc1C(=O)Nc1ccc(S(=O)(=O)Nc2cc(C)on2)cc1,1e-09,i,i,-46%[inhibitor],0.9%
CN=c1sc(C(=O)Nc2cccc(Cl)c2)cc(=O)n1C,1.2e-08,i,i,-2%,1.0%
c1ccc2ncc(-n3cnnn3)cc2c1,1e-09,i,i,-10%,-1.6%
C=C[C@H](N)CCC(=O)O,6.1e-09&3.7e-08,i,i,?,-2.9%
COc1ccc(S(=O)(=O)N2CCN(C(=O)c3cccc(Cl)c3)CC2)cc1,4.4e-09,i,i,-4%,0.0%
CCCCSc1nnc(C)c(=O)[nH]1,2.5e-09,i,i,1%,-0.4%
O=C(Oc1ccc(Cl)cc1N1C(=O)CCC1=O)c1ccco1,2.6e-08,i,i,1%,-0.7%
N#Cc1cccc(-c2nc(NCc3cccnc3)c3ccccc3n2)c1,1.8e-08,i,i,nt,11%
CCOc1c(OC)cccc1C1CC(=O)Nc2cc(OC)c(OC)cc21 (centres undefined),nt,nt,nt,26%,2.1%
N=C(N)SCCCN,1e-09,i,i,6%[11.4 µM],5.7%[11.5 µM]
CCn1c(=O)cc(OCC(=O)NC2CCCCC2)c2ccccc21,1.8e-09,i,i,3%[11.4 µM],-0.4%

# The last two entries of the section above open the next one:
SMILES,A647 autofl,A488 fluor,Resorufin fluor,TSHR agonist,AID923
N=C(N)SCCCN,1e-09,i,i,6%[11.4 µM],5.7%[11.5 µM]
CCn1c(=O)cc(OCC(=O)NC2CCCCC2)c2ccccc21,1.8e-09,i,i,3%[11.4 µM],-0.4%
Cc1cc(C)n(-c2ccc(N3CCOCC3)nn2)n1,nt,nt,nt,-2%,-3.1%
Cc1nnc(NC(=O)CSc2nnc(-c3ccoc3C)n2CC(C)C)s1,1e-09,i,i,-1%,-1.1%
C[C@@H](C(=O)Nc1ccc2ccccc2c1)[C@H]1C[C@]1(C)[C@H](NC(=O)Oc1ccc(F)cc1)c1ccccc1,nt,nt,nt,0%,0.7%
CCOC(=O)c1ccc(Nc2cc(C)nc(-c3ccccc3O)n2)cc1,nt,nt,nt,-14%,5.9%
COc1ccc(NC(=O)CCS(=O)(=O)c2ccc(OC)cc2)cc1,5.8e-09,i,i,-4%,-1.7%
O=C(O)C1=C/C(=C(/c2ccccc2)c2cc(C(=O)O)c(O)c3ccccc23)c2ccccc2C1=O,3.7e-09&1e-09,i,i,0%&-6%[11.4 µM],-4.4%&-2.2%[11.5 µM]
CCOC(=O)c1cccc(NC(=O)CCc2nc(-c3ccc(C)cc3)no2)c1,1.1e-09,i,i,17%,-1.4%
CCc1nn2cc(-c3ccccc3)nc2s1,5e-08,i,i,-4%,1.8%
Cc1cccc(NC(=O)CCN2CC(C)OC(C)C2)c1 (centres undefined),1e-09,i,i,1%,0.9%
CC(=O)CCc1c(C)c2cc(C)ccc2[nH]c1=O,1e-09,i,i,10%,3.7%
CCn1c(SC(=O)NC2CCCCC2)nnc1-c1cccs1,2.5e-09,i,i,9%,-0.5%
Cc1cccc(N2CCN(C(=O)C3CCN(S(=O)(=O)c4cnc[nH]4)CC3)CC2)c1C,1e-09,i,i,2%,-0.8%
CCS(=O)(=O)N1CCN(Cc2ccccc2OC)CC1,2.9e-08,i,i,2%,-0.5%
